# MARV entry inh: qHTS for inhibitors of binding or entry into cells for Marburg Virus | Marburg virus pseudotyped entry inhibition, cell reporter; control for the full effect not named in the record; about a third of the inactives were read at about 46 µM | Potency, µM (series often up to 37.8 µM), for the others: at the highest dose activity change, negative = inhibition, usual class: inhibitors | 300,000 compounds, 1.8% hits; active = well fitted inhibition curve with a large enough effect; inconclusive = small, poorly fitted or top-dose-only effect, or effect the other way; inactive = flat fitted curve, though single readings scatter; tested in HEK293 cells; about a fifth of its hits are not listed in these tables; note: % is set by controls: 0 for no effect and ±100 for the full control effect; luciferase read-out
# Cruzain noTriton: qHTS Assay for Promiscuous and Specific Inhibitors of Cruzain (without detergent); Cruzipain (Trypanosoma cruzi), P25779; purified cruzain, Z-FR-AMC fluorescence, no detergent; Potency, µM, without a hit: max response, negative = inhibition, usual class: inhibitors; 200,000 compounds, 2.3% hits; AID 1476, 2009;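 note: plate controls were enzyme without inhibitor for no effect and buffer without enzyme for full effect; nearly all actives have a fitted effect of over 40% in size; top concentration of the series not given in the record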
# Target sequence (P25779 123-467 limits assumed): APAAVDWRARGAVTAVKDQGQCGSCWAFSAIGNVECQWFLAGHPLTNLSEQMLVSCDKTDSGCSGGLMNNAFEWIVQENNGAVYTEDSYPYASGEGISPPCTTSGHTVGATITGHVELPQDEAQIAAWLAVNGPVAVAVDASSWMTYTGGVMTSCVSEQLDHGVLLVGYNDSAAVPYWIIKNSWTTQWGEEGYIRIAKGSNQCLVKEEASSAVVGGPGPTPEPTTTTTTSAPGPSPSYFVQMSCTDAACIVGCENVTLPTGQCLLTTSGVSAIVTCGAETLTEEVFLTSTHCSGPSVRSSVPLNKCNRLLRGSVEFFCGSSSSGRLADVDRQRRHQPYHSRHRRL
#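 Purified cruzain at 1.5 nM, pre-incubated 15 min with compound at room temperature in 100 mM sodium acetate pH 5.5, 5 mM DTT, 0.00005% Triton X-100. Reaction started with 2 uM Z-FR-AMC; AMC fluorescence increase over 60 s gives rate.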
# StopGo reporter: High Throughput Screening for Foot and Mouth Disease Virus Antivirals. 410,000 compounds, 1.2% hits. Potency, µM (highest dose often 57.9 µM), inactives show at the top dose signal change, negative = less light. human cells with a luciferase reporter of 2A StopGo recoding; control for the full effect not named in the record; active = well fitted falling curve with a large enough effect; inconclusive = small, poorly fitted or top-dose-only effect; inactive = no such curve, though single readings can be large or run the other way; tested in HEK293T cells; note: % is set by controls: 0 for no effect and ±100 for the full control effect; nearly all actives have a fitted effect of over 45% in size; luciferase light after 4 h
# Lassa entry inh: qHTS for Inhibitors of binding or entry into cells for Lassa Virus; Lassa virus pseudotype entry inhibition, cell reporter; control for the full effect not named in the record; Potency, µM (series often up to 37.9 µM), for inactives: at the highest dose activity change, negative = inhibition, hits mostly inhibitors; 300,000 compounds, 1.2% hits; AID 540256, 2011; active means well fitted inhibition curve with a large enough effect; inconclusive means small, poorly fitted or top-dose-only effect, or effect the other way; inactive means flat fitted curve, though single readings scatter; tested in HEK293 cells; note: % is set by controls: 0 for no effect and ±100 for the full control effect; nearly all actives have a fitted effect of over 50% in size; luciferase read-out
# SARS PLpro yeast: qHTS of Yeast-based Assay for SARS-CoV PLP | S. cerevisiae expressing SARS-CoV PLpro, growth rescue; control for the full effect not named in the record | AID 485353, 2010 | 330,000 compounds, 0.19% hits | Potency, µM (doses to about 32.9 µM), for the others: at the highest dose activity, positive = growth rescue; active means well fitted rising curve with a large enough effect; inconclusive means small, poorly fitted or top-dose-only effect; inactive means no such curve, though single readings can be large or run the other way; note: 0% is about no effect; nearly all actives have a fitted effect of over 55% in size; growth read by luminescence after 48 h
# NS1 inh: qHTS Assay for Inhibitors of Influenza NS1 Protein Function | S. cerevisiae slowed by influenza A NS1, growth recovery by OD600 | Potency, µM (doses to about 46.1 µM), inactives show at the highest dose activity, positive = more growth | 270,000 compounds, 0.4% hits | AID 2326, 2010; active means well fitted rising curve with a large enough effect; inconclusive means small, poorly fitted or top-dose-only effect; inactive means no such curve, though single readings can be large or run the other way; note: nearly all actives have a fitted effect of over 50% in size
#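 Recovery from NS1-induced slow growth read by OD600 in budding yeast switched to galactose assay medium (pH 6.0, -URA) at 1:100 dilution. Compound 23 nl per well; the matching strain lacking NS1 serves as control.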
# RE007 growth inh: qHTS Assay for Inhibitors of the HIV-1 protein Vpr; S. pombe RE007 Vpr strain, BacTiter-Glo ATP luminescence, 24 h; control for the full effect not named in the record; Potency, µM (series often up to 92.2 µM), without a hit: top-dose activity change, negative = less growth; 360,000 compounds, 0.21% hits; AID 651644, 2012; active = well fitted falling curve with a large enough effect; inconclusive = small, poorly fitted or top-dose-only effect; inactive = no such curve, though single readings can be large or run the other way;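 note: % is set by controls: 0 for no effect and ±100 for the full control effect; nearly all actives have a fitted effect of over 50% in size; the assay follows cell death caused by Vpr and the record does not say whether a fall means rescue or toxicity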
#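 Fission yeast RE007 carrying one integrated HIV-1 vpr copy, seeded at OD 0.01 in PMG+AL medium with 23 nL pinned compound. Grown 24 h at 30 degrees; viability read by BacTiter-Glo luminescence after 5 min.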
# Cruzain Triton: qHTS Assay for Promiscuous and Specific Inhibitors of Cruzain (with detergent); Cruzipain (Trypanosoma cruzi), P25779; purified cruzain, Z-FR-AMC fluorescence, 0.01% Triton; Potency, µM, for inactives: max response, negative = inhibition, usual class: inhibitors; 200,000 compounds, 0.43% hits;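 note: plate controls were neutral wells for no effect and buffer without enzyme for full effect; nearly all actives have a fitted effect of over 40% in size; top concentration of the series not given in the record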
#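 Z-FR-AMC hydrolysis (2 uM substrate) by cruzain (1.5 nM) monitored kinetically at ex 360/em 450 nm after 15 min room-temperature compound exposure; 0.01% Triton X-100, pH 5.5, 5 mM DTT.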
# * = called active by the depositor; ? = inconclusive; . = not tested or not shown; & = joins results of further samples; [ ] = remark or other dose. Unless noted, calls come from the whole dose curve; as a rule, active = well fitted curve in the direction sought with a large enough effect; inconclusive = small, poorly fitted or top-dose-only effect, or another doubt; inactive = no such curve, though single readings can be large; an effect the other way counts as inactive or inconclusive. Potency is the fitted concentration of half-maximal effect.
SMILES,MARV entry inh,Cruzain noTriton,StopGo reporter,Lassa entry inh,SARS PLpro yeast,NS1 inh,RE007 growth inh,Cruzain Triton
CC(C)Cc1ccc(/C(=N/O)C(=O)O)s1,22%[46.1 µM],-16%,-22%,9%,2%,?,-1%,-1.3%
COCCNC(=O)C(OC(=O)c1ccco1)c1ccccc1OC (configuration not stated),17%,1%,-18%,11%,9%,-4%,0%,3.0%
O=C(Nc1nnc(SCCN2CCOCC2)s1)C1CC(=O)N(c2ccccc2)C1 (configuration not stated),31%,.,-2%,1%,22%,0%,-7%,.
CCc1nnc(NC(=O)c2ccc(S(=O)(=O)N3CCCCCC3)cc2)s1,16%[46.1 µM],13µM*,8%,1%,1%,4%,0%,4.1%
COc1ccc(CNC(=O)CCCn2nc(C)c3c(C)n(-c4ccc(C)cc4)nc3c2=O)cc1,.,.,-27%,.,8%,-3%,-6%,.
CC(=O)Cc1nsc(Nc2ccccc2)n1,?,2%,58%[activator],1%,9%,-2%,-3%,3.6%
COc1ccc(NC(=O)CNC(=O)c2ccc([N+](=O)[O-])cc2)cc1,-15%[46.1 µM],.,-7%,-4%,0%,.,-6%,.
CCOc1ccccc1-c1nc(C(N)=O)c2[nH]c(=O)n(-c3ccccc3)c2n1,?,10%,?,-10%,0%,-9%,9%,-2.7%
Cc1cc(C(=O)N/N=C/c2ccc(N(C)C)cc2)c2ccccc2n1,-18%[46.1 µM],.,?,?,2%,.,20%,.
COc1ccccc1NC(=O)CSC1=Nc2ccccc2C2=NC(CC(=O)NCc3ccco3)C(=O)N12 (configuration not stated),.,16%,31%[activator],-1%[46.1 µM],.,.,.,1.9%
COc1ccc(OCC(O)CNC2CCCC2)cc1 (configuration not stated),1%[46.1 µM],.,-14%,0%[46.1 µM],-3%,12%,-16%,.
Cc1cc(C(=O)NCc2ccc(F)cc2)n(-c2ccccc2)n1,.,.,-7%,.,1%,2%,-4%,.
Cc1c(-c2nc(-c3ccncc3)no2)cccc1[N+](=O)[O-],.,.,31%[activator],.,0%,1%,-4%,.
COc1cccc(OC)c1C(=O)Nc1cccnc1,1%,.,?,-9%,-2%,.,0%,.
Cc1cnc(C(=O)N2CCc3c([nH]c4ccccc34)C2c2ccc(F)cc2)cn1 (configuration not stated),.,.,5%,.,-2%,-2%,-15%,.
CCOc1ccc(CN(C)C(=O)CCl)cc1,11µM*,.,25µM*,?,2%,.,-12%,.
CCC(C(=O)NCC1CCCO1)n1nc(C)c2sc3ccccc3c2c1=O (configuration not stated),.,.,5%,.,2%,-2%,1%,.
Cc1ccc(OCC(=O)N2CCN(Cc3ccc(F)cc3)CC2)cc1,0%[46.1 µM],6%,-24%,9%[46.1 µM],.,.,.,0.7%
CCS(=O)(=O)N1CCN(c2ccnc3cc(Cl)ccc23)CC1,?,.,0%,-5%,0%,0%,-14%,.
COc1ccc(/C=C2\SC(=S)N(CCC(=O)NCCc3ccc(O)cc3)C2=O)cc1,.,.,22%,.,-16%,8%,-9%,.
O=C1CSC(c2cccc(O)c2)N1Cc1ccccc1 (configuration not stated),.,.,-8%,.,2%,4%,25%,.
O=C(NCCNS(=O)(=O)c1ccccc1)c1cc(OCC(F)(F)F)ccc1OCC(F)(F)F,21%,-7%,23%,22%,5%,-1%,0%,3.1%
O=C(NCc1ccccn1)c1ccc(Cn2c(=S)[nH]c3ccc(Br)cc3c2=O)cc1,-9%,.,4%,-22%,0%,.,-7%,.
CN1CCN(Cc2nc3ccccc3c(=O)n2CC#N)CC1,.,.,-9%,.,1%,1%,-7%,.
O=C1Nc2ccc(Br)cc2/C1=C/C(=O)c1ccccc1,?,.,?,?,.,.,3%,.

# (continued)
SMILES,MARV entry inh,Cruzain noTriton,StopGo reporter,Lassa entry inh,SARS PLpro yeast,NS1 inh,RE007 growth inh,Cruzain Triton
Cc1cccc(N2C(=O)CSC2c2cccnc2)c1 (configuration not stated),15%,10%,.,-3%,3%,13%,14%,4.3%
CCCCn1c(=O)c2oc3ccccc3c2n(CC(=O)Nc2cccc(Cl)c2)c1=O,.,-5%,-5%,17%[46.1 µM],.,.,.,-1.4%
Fc1ccc(-c2cc(C(F)(F)F)nc(N3CCCCC3)n2)cc1,11%,-15%,13%,12%,1%,3%,-8%,-3.2%
C=CCNC(=S)N1CCN(S(=O)(=O)c2ccc(C)cc2)CC1,.,.,-14%,.,1%,-1%,8%,.
Cc1ccccc1NC(=O)CCCC(=O)c1ccccc1,-3%,.,25%,8%,-3%,0%,-3%,.
CCc1ccc(N(C(=O)c2ccco2)C(C(=O)NC2CCCC2)c2ccncc2)cc1 (configuration not stated),-4%[46.1 µM],.,50%[activator],.,-3%,-7%,-1%,.
CN(C)CCn1c2c(c(SCC(=O)Nc3cccc4ccccc34)nc1=O)CCCC2,?,.,-1%,-15%,-3%,.,7%,.
CCCn1c(SCC(=O)Nc2ccccc2-c2ccccc2)nnc1-c1ccoc1C,-29%[46.1 µM],2%,-21%,?,3%,-16%,3%,0.3%
CCOc1ccc(NC(=O)C(C)Oc2ccccc2C(=O)Nc2cccc(Cl)c2Cl)cc1 (configuration not stated),?,?,-7%,-15%,5%,7%,0%,-5.6%
Clc1cccc(-n2ncc3c(NCCc4ccccc4)ncnc32)c1,.,-12%,-1%,-9%[46.1 µM],.,.,.,-0.4%
COCCN(Cc1ccc(F)cc1)C(=O)c1cc2ccccc2oc1=O,.,.,18%,.,2%,19%,-9%,.
Cc1ccc(C(=O)Nc2ccc(C)c(S(=O)(=O)Nc3ccccc3Cl)c2)s1,-29%,-11%,-30%,5.2µM*,9%,2%,-1%,-6.6%
CC(=O)Nc1ccc(C(=O)OCC(=O)NC(=O)NC2CCCCC2)cc1,?,8%,-11%,-15%,-1%,-8%,-3%,-4.1%
COC(=O)C1CCN(c2nc3ccccc3nc2C(C#N)C(=O)NCCc2ccccc2)CC1 (configuration not stated),0%&0%,-1%,?,2%,3%,-8%,0%,3.0%
CCC(C)(C(=O)NC1CCCCC1)N(C(=O)CNC(C)=O)c1c(C)n(C)n(-c2ccccc2)c1=O (configuration not stated),2%,2%,-12%,10%,1%,4%,11%,2.0%
Cc1cc2oc(C(=O)Nc3sc4c(c3C(=O)NCC3CCCO3)CCCC4)cc(=O)c2cc1C (configuration not stated),10%[46.1 µM],-6%,5%,15%[46.1 µM],.,.,.,-1.6%
O=C(O)c1cccc(NC(=O)c2ccc3c(c2)C(=O)N(c2cccc([N+](=O)[O-])c2)C3=O)c1,.,.,-7%,.,1%,-1%,2%,.
COc1cc(OC)c(OC)cc1CN1CCN(C(=O)c2cccc3ccccc23)CC1,?,.,3%,-15%[46.1 µM],2%,-8%,5%,.
CCCCC#Cc1ccc(C(=O)NNC(=O)Nc2cc(Cl)cc(Cl)c2)o1,.,.,-14%,.,1%,-1%,-7%,.
O=C1C(=O)N(C2CCNCC2)CCN1Cc1ccccc1,.,-6%,-8%,-3%[46.1 µM],.,.,.,1.0%
CCOC(=O)c1cn2nc(-c3ccc(OC)cc3)cc2nc1C1CCN(C(=O)OC(C)(C)C)CC1,?,19%,?,?,2%,0%,-10%,-10.0%
CC(=O)OCCNc1nc(-c2ccccc2)nc2ccccc12,-12%,.,-20%,5%,-1%,-7%,-11%,.
O=c1c2ccccc2nc(CNCc2ccco2)n1-c1ccc(F)cc1,-32%,-1%,-4%,-2%,-6%,-14%,2%,-1.3%
Cn1cc(CN2CCc3sccc3C2)c(-c2ccccc2F)n1,.,.,-10%,.,-2%,-3%,-4%,.
N#CC(C#N)=Cc1ccc(-c2ccccc2F)o1,5%,4%,-23%,1%,23%,-7%,16%,-2.3%

# The list goes on:
SMILES,MARV entry inh,Cruzain noTriton,StopGo reporter,Lassa entry inh,SARS PLpro yeast,NS1 inh,RE007 growth inh,Cruzain Triton
CCOC(=O)CSc1nc(C)c(C(=O)OCC)s1,3%,5%,10%,-2%,1%,-52%,5%,3.8%
CCC1C(C#N)=C(N)OC2=C1C(=O)CC(C)(C)C2 (configuration not stated),17%,4%,17%,-7%,-4%,-7%,2%,-3.6%
COc1ccc(/C=C/C(=O)NC2=NCCS2)cc1OC,?,.,37%[activator],3%[46.1 µM],2%,8%,5%,.
CC1CCN(S(=O)(=O)c2ccc(NC(=O)c3ccncc3)cc2)CC1,?,.,?,?,5%,-4%,3%,.
Cc1ccc(-c2cc(C(=O)Nc3ccc4c(c3)OCCO4)c3ccccc3n2)cc1,?,10µM*,-10%,-3%,-12%,24%,-18%,-1.0%
CCc1ccc(NC(=O)Cn2nnc(-c3ccccc3N)n2)cc1,-5%[46.1 µM],-7%,4%,-17%[46.1 µM],.,.,.,-6.8%
CCCn1nnnc1SCC(=O)Nc1sc(C)c(C)c1C#N,10%[46.1 µM],.,-15%,-12%,-1%,-3%,3%,.
CCOC(=O)c1cnc(-c2ccccc2)nc1Oc1ccccc1,?,-5%,0%,-9%,-8%,-104%,-15%,-4.6%
CC1=CC(C)C(/C=N/N=C(N)N)C(C)C1 (configuration not stated),?,.,?,?,0%,8%,3%,.
CSc1ccccc1C(=O)NC1CCCc2ccccc21 (configuration not stated),1%[46.1 µM],.,11%,-16%,-4%,-18%,21%,.
COc1ccc(-c2cn3c(n2)sc2cc(C(=O)NCCc4ccccc4)ccc23)cc1,.,?,9%,?,.,.,.,-4.0%
COc1ccccc1Nc1nc(N)nc(CN2CCN(c3ccccc3)CC2)n1,-2%,8%,0%,0%,1%,-4%,0%,-1.2%
Cc1ccc(-n2nc3c(SCCN4CCOCC4)nnc(C)c3c2C)cc1,?,-13%,-26%,11%,8%,-10%,-12%,-6.4%
Cc1cccc(C(=O)N/N=C2/SCC(=O)N2Cc2ccccc2)c1,2%[46.1 µM],.,10%,7%,0%,0%,4%,.
CCC(=O)Oc1c(C(=O)CC)cc2c(C)cc(=O)oc2c1C,0%,0%,-19%,24%,-32%,-11%,-11%,-5.9%

# From PubChem

# Outcome played no part in choosing rows; any-hit rate near 4.5%.
